KCNQ2 enhance = KCNQ2 (rat) channel potentiation. O88943. B-score at 10 µM. CHO-K1 KCNQ2, FluxOR thallium flux fluorescence; hits give high values. actives 0.54% (n = 310,000);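 active = fluorescence ratio B-score at least 3 SD of library B-scores, with initial fluorescence B-score within 3 SD, cut at about 5.3 in these data; same plate scores as AID 2156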;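 note: B-score of peak minus minimum over baseline fluorescence ratio after K+ and Tl+ stimulus; positive B-score means potentiation of KCNQ2 with more thallium influx and brighter signal; only the inactives scoring about 0 or higher are listed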
Target sequence (O88943 whole entry, looked up): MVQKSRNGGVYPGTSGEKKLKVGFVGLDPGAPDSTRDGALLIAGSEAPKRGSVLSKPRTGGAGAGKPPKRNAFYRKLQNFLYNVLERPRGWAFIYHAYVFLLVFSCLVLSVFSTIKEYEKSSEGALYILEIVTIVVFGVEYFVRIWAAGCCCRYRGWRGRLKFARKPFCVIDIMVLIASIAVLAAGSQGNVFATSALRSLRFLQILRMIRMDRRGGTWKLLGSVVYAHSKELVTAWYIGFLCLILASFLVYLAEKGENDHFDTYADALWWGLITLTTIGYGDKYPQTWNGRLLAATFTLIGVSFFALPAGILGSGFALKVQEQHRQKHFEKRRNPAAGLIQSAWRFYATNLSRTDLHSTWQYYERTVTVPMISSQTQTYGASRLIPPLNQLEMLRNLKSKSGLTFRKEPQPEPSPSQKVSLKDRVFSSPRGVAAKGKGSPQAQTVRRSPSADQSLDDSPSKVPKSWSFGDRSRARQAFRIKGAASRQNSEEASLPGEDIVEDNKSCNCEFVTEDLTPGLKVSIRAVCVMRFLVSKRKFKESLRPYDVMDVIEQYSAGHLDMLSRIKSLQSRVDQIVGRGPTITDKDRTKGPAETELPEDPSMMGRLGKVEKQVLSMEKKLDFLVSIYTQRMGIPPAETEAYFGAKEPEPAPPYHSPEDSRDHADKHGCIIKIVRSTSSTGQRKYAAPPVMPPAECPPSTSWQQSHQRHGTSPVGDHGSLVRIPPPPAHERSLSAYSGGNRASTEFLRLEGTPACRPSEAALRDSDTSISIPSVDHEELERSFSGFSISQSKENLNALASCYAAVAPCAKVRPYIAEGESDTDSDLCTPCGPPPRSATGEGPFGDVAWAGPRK
KCNQ2 enhance baseline = second read-out of KCNQ2 enhance, no call of its own (marks repeat the call); B-score; compound at 10 µM; measured here: initial fluorescence intensity artifact check;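 brightness before thallium and not channel activity; 0 = typical well and far values either way flag optical interference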
An asterisk follows results filed as active. Not all compounds are listed. The share of hits here may be higher or lower than overall.

KCNQ2 enhance	KCNQ2 enhance baseline	SMILES
0.02	0.11	O=C(c1ccccc1)N1CCC(O)(c2ccc3c(c2)OCO3)CC1
2.1	-0.23	O=C(NC(=O)c1ccccc1)OCCN1C(=O)c2ccccc2C1=O
14*	-0.22*	O=[N+]([O-])c1ccc(Nc2ccc(Cl)cc2)nc1
0.64	1.4	COc1cccc(-c2nnn(CCC(=O)O)n2)c1
0.43	-0.25	NC(=O)c1ccc(C(=O)N/N=C(/Cc2ccccc2)c2ccccc2)cc1
0.03	0.41	c1cc2nncn2nc1N1CCCC1
0.19	1.9	O=C(O)c1cc(NCc2ccc(F)cc2)ccc1N1CCOCC1
1.5	1.3	COc1ccc(S(=O)(=O)NCc2cc(=O)n(C)c(=O)n2C)cc1C
1.2	1.7	Cc1ccc(S(=O)(=O)NNC(=O)CC#N)cc1
0.58	0.49	COc1ccc(-c2[nH]ncc2CN(C)CCc2c(C)n[nH]c2C)c(F)c1
1.2	-2.3	CCC(=O)N1CCc2cc(S(=O)(=O)CCC(=O)NC(C)CC)ccc21 (stereo not drawn)
0.51	2.8	O=C(Nc1ccccn1)C(F)(F)C(F)(F)C(F)(F)C(F)(F)C(=O)Nc1ccccn1
0.04	0.97	CC(C)c1ccc(C(=O)NNC(=O)C2CC=CCC2C(=O)O)cc1 (stereo not drawn)
0.23	-2	Cc1cc(C)n(-c2ccc(C(=O)Nc3ccc(C)c(S(=O)(=O)N4CCOCC4)c3)cc2)n1
8.6*	-0.91*	CC1(C)Cc2c(c(N3CCOCC3)nc3snc(NC(=O)c4ccccc4)c23)CO1
0.4	-1.1	CCc1ccccc1N(CC(=O)NC(C)(C)C)C(=O)CCC(=O)Nc1ccccn1
1.1	1	O=C(Nc1cccc(C(F)(F)F)c1)c1scc2c1OCCO2
1.7	-0.57	Cc1cnc(C(=O)OCC(=O)c2ccc(F)c(F)c2)cn1
0.03	-1.4	O=C(Nc1cccnc1)c1cc(-c2cc(Cl)ccc2O)n[nH]1
1.9	-1	Cc1ccc(-c2nc3ccccc3o2)cc1NC(=S)NC(=O)c1cccs1
3.3	-0.72	Cc1cc(C)n(-c2nc(SCCN(C)C)c3c4c(sc3n2)COC(C)(C)C4)n1
0.03	-0.31	COc1ccc(S(=O)(=O)CC(=O)Nc2nnc(C(F)(F)F)s2)cc1
0.93	-0.27	O=C(COc1ccc(Cl)cc1Cl)NN1C(=O)/C(=C\c2ccc(Cl)cc2)SC1=S
0.05	0	Cn1/c(=N/NC(=O)c2cccc(OC(F)F)c2)sc2ccccc21
1.1	-0.02	CC1CC(C(F)(F)F)n2ncc(C(=O)O)c2N1 (stereo not drawn)
1	0.07	O=C(OCC(=O)N1CCN(S(=O)(=O)c2ccc(Cl)cc2)CC1)c1cc(Br)ccc1O
0.27	-1.3	COc1ccc(N2CCN(S(=O)(=O)CCNC(=O)C34CC5CC(CC(C5)C3)C4)CC2)cc1
0.43	0.04	CCOCCCNC(=O)c1cn(C)c2ccc(S(=O)(=O)N3CCCC3)cc2c1=O
0.45	0.05	COc1ccc(OC)c(NC(=S)NN2CCN(C)CC2)c1
0.97	-1.2	O=C(COc1ccccc1)Nc1cccc(-c2nnc(-c3ccccc3)o2)c1
0.71	0.21	COc1ccc(-c2nnn(CC(=O)NCc3cccs3)n2)cc1OC
0.14	-1.6	Cc1ccccc1Nc1nc(-c2cccnc2)nc2ccccc12
0.01	-0.24	COc1ccc2nc(/N=C(\N)NC(=O)N3c4ccccc4Sc4ccccc43)nc(C)c2c1
0.94	-0.45	CCSc1nnc(NC(=O)CSc2nc3c(c(=O)n2C)SC(C)C3)s1 (stereo not drawn)
0.76	0	CCCS(=O)(=O)c1c(S(=O)(=O)CCC)c2cc(CC)ccn2c1C(=O)OC
6.3*	1.8*	CC(=O)c1cccc(OCc2cc(C(=O)NC3CCN(Cc4ccccc4)CC3)no2)c1
0.7	-1.1	COc1ccc(OC)c(C2C(C(=O)c3cccs3)=C(O)C(=O)N2CCN(C)C)c1 (stereo not drawn)
1.2	0.69	CCOC(=O)C1=C(C)N(CCCCCC(=O)O)C(=O)NC1c1ccc(Br)cc1 (stereo not drawn)
0.11	-0.77	Cc1c(C(=O)Nc2nnc(C(F)(F)F)s2)oc2ccccc12
1.9	-1.8	Cc1ccc(CNC(=O)C2c3ccccc3C(=O)N(C)C2c2c[nH]c3ccccc23)o1 (stereo not drawn)
2.7	-1.3	CCn1c(=NC(=O)c2cccc(N3C(=O)CCC3=O)c2)sc2c(OC)ccc(OC)c21
0.09	0.97	CCCCn1nc2cc(C(=O)NCc3ccccc3OC)ccc2c1OCC
0.09	0	CCOc1ccccc1N(CC(=O)Nc1cccc2ccccc12)S(C)(=O)=O
0.23	0.01	CC(C)c1nn2c(=O)cc(COc3cccc(NC(=O)c4ccco4)c3)nc2s1
1.2	0.02	O=C(CCC(=O)N1CCSc2ccccc21)NCc1ccccc1
0.85	0.63	COc1ccc(CNC(=O)C(c2ccncc2)N(C(=O)Cc2cccs2)c2cccnc2)cc1 (stereo not drawn)
1.3	0.54	CC(NC(=O)c1cccs1)c1ccc(Br)cc1 (stereo not drawn)
0.01	-1.1	CCOC(=O)C(=O)Nc1nnc(COc2ccccc2)s1
0.36	-0.09	COc1ccc(C2c3ccc(O)cc3Oc3ncn4nc(-c5cccnc5)nc4c32)cc1OC (stereo not drawn)
0.75	0.27	COc1ccc(NC(=O)CSCC(=O)Nc2ccccc2N2CCCC2)cc1

Four compounds already listed, arranged by length of the SMILES, ascending:
KCNQ2 enhance	KCNQ2 enhance baseline	SMILES
0.03	0.41	c1cc2nncn2nc1N1CCCC1
0.64	1.4	COc1cccc(-c2nnn(CCC(=O)O)n2)c1
0.76	0	CCCS(=O)(=O)c1c(S(=O)(=O)CCC)c2cc(CC)ccn2c1C(=O)OC
6.3*	1.8*	CC(=O)c1cccc(OCc2cc(C(=O)NC3CCN(Cc4ccccc4)CC3)no2)c1

Next part
KCNQ2 enhance	KCNQ2 enhance baseline	SMILES
0.64	-0.04	COc1ccc(/C=N/n2c(C)nc3sc(C)c(C)c3c2=O)cc1OC
0.55	1.7	O=[N+]([O-])c1ccc2oc(C3CCCCC3)nc2c1
1	-0.18	COC(=O)c1ccc(Oc2nc3c(c(=O)n(C)c(=O)n3C)n2CCC(C)C)cc1
1.7	0.84	Cc1cc(C)c(NC(=O)CSc2nnnn2-c2cccnc2)c(C)c1
0.94	-2.4	Cc1cccc2c(=O)cc(C(F)(F)F)[nH]c12
0.09	-0.17	O=C(O)CC(NC(=O)C12CC3CC(CC(C3)C1)C2)c1ccc2c(c1)OCO2 (stereo not drawn)
0.02	-1	CCCCCCCn1c(C)nnc1-c1cnn(C)c1N
0.55	-0.07	CCc1nnc(NS(=O)(=O)c2ccc(NCc3cc(Cl)ccc3O)cc2)s1
0.68	0.56	O=C(OCc1ccc([N+](=O)[O-])cc1)c1cc(=O)c2ccccc2o1
1	0.88	CCCCc1ccc(NC(=O)CSC2=C(C#N)C(c3ccco3)C3=C(CCCC3=O)N2)cc1 (stereo not drawn)
2.7	-1.9	CCOc1ccccc1NC(=O)c1ccc(S(=O)(=O)N(C)C)cc1
1.5	-1.2	COc1ccc(CCNC(=O)c2ccc(Cl)cc2)cc1OC
0.42	0.41	N/C(Cc1ccc([N+](=O)[O-])cc1)=N\OC(=O)c1ccccc1F
0.49	0.89	COc1cc(NC(=O)CN2CCN(Cc3ccc4c(c3)OCO4)CC2)cc(OC)c1
0.7	1.6	Cc1ccc(CNC(=O)c2ccc(N3CCC4(CC3)CC(c3cccc(Br)c3)=NO4)c([N+](=O)[O-])c2)cc1
0.43	-1	COc1cc(/C=N/NC(=O)c2ccc3c(c2)OCCO3)cc(Cl)c1O
0.86	0.67	O=C(NCC1CC1)c1cc(-c2ccccc2)nn1CC1CC(c2cccnc2)=NO1 (stereo not drawn)
1.2	-1.4	Cc1cc(C(=O)Nc2ccc(S(=O)(=O)N3CCOCC3)cc2)ccc1[N+](=O)[O-]
0.23	1.1	O=C(NCCCN1CCOCC1)C1Nc2ccc(OC(F)(F)F)cc2C2C=CCC12 (stereo not drawn)
0.4	0.88	COc1ccc(NC(=O)COC(=O)c2ccc([N+](=O)[O-])o2)cc1Cl
1.7	-1.1	COc1ccc(Cc2nnc(NC(=O)Nc3ccc(C)cc3)s2)cc1OC
1	-3.4	Cc1ccc(C(=O)NCCN2CCOCC2)cc1
0.4	-1.9	CCCCC(=O)Nc1ccc(C(N)=O)cc1
2.1	-0.03	O=C(Nc1cccc(C(F)(F)F)c1)C1CCCN(S(=O)(=O)c2cnc[nH]2)C1 (stereo not drawn)
0.21	0.2	CC(=O)NS(=O)(=O)c1ccc(NC(=O)c2ccc(Br)o2)cc1
2.2	-0.22	Cc1cc(C)n(S(=O)(=O)c2ccc(Cl)c(Cl)c2Cl)n1
0.09	0.16	Cc1cc(-c2n[nH]c(=S)n2/N=C/c2cccc(O)c2)n[nH]1
0.54	1.2	CC1CCCCN1C(=O)Cn1c(=O)oc2ccccc21 (stereo not drawn)
0.88	-0.51	COc1ccc(Br)cc1CNC(=O)C1CCN(C(=O)N(C)C)CC1
0.56	-0.5	Cc1ccc(C(=O)Nc2cccc(-c3ccc(N4CCOCC4)nn3)c2)cc1[N+](=O)[O-]
1.2	-0.59	CCC(=O)NC(c1ccc(OC)cc1)c1c(O)ccc2ccccc12 (stereo not drawn)
1.4	0.51	COc1ccccc1CNc1nc2nc3c(c(=O)n2[nH]1)CCC3
0.22	1.9	CCOc1ccc(NC(=O)[C@@H]2CCC(=O)N2C2OC(=O)c3ccccc32)cc1 (stereo partly drawn)
2.8	-0.53	CCOc1cc(/C=N/NC(=O)c2ccc(O)cc2)ccc1Oc1nc(Cl)ncc1F
0.08	1.2	CC(C)[C@H](N)c1nnc2n1N=C(c1ccc(Cl)cc1)CS2
0.06	0.9	CCSc1cc(C)nc2ncnn12
1.4	-0.59	COCCCNC(=O)c1ccccc1NS(=O)(=O)c1ccc(C)cc1
0.09	0.03	CN(CC(=O)NCc1ccco1)S(=O)(=O)c1ccc2c(c1)n(C)c(=O)c(=O)n2C
0.61	-0.61	COc1ccc(Nc2nc(N3CCCC3)c3ccccc3n2)cc1
0.79	-1.8	Cc1ccnc(NS(=O)(=O)c2ccc(NC(=O)c3ccc(S(=O)(=O)N(C)C)cc3)cc2)n1
0.95	-1.2	CC[C@@H](C)[C@H](NS(=O)(=O)c1ccc(C)cc1)C(=O)N1CCC(C(=O)NCC(=O)O)CC1
0.48	0.13	CCC(CC)CN1CCN=C1N(C)C
0.28	0.47	CC(=O)c1cccc(NC(=O)CCC(=O)Oc2ccc(C)cc2)c1
0.55	0.56	COc1ccccc1NC(=O)CSCc1nc2ccccc2[nH]1
0.28	1.4	O=C(Nc1ccccn1)c1onc2c1CCCC2
0.01	-0.82	Cc1ccc(N(CC(=O)NC2CCCC2)C(=O)c2ccc(C)s2)cc1
2.4	-0.28	CC(=O)c1cccc(NC(=O)C2(c3ccccc3)CC2(Cl)Cl)c1 (stereo not drawn)

A different layout for some results above.
Structure,KCNQ2 enhance,KCNQ2 enhance baseline
COc1ccc(NC(=O)COC(=O)c2ccc([N+](=O)[O-])o2)cc1Cl,0.4,0.88
COc1ccc(Cc2nnc(NC(=O)Nc3ccc(C)cc3)s2)cc1OC,1.7,-1.1
Cc1ccc(C(=O)NCCN2CCOCC2)cc1,1,-3.4
CCCCC(=O)Nc1ccc(C(N)=O)cc1,0.4,-1.9
O=C(Nc1cccc(C(F)(F)F)c1)C1CCCN(S(=O)(=O)c2cnc[nH]2)C1 (stereo not drawn),2.1,-0.03
CC(=O)NS(=O)(=O)c1ccc(NC(=O)c2ccc(Br)o2)cc1,0.21,0.2
Cc1cc(C)n(S(=O)(=O)c2ccc(Cl)c(Cl)c2Cl)n1,2.2,-0.22
Cc1cc(-c2n[nH]c(=S)n2/N=C/c2cccc(O)c2)n[nH]1,0.09,0.16
CC1CCCCN1C(=O)Cn1c(=O)oc2ccccc21 (stereo not drawn),0.54,1.2
COc1ccc(Br)cc1CNC(=O)C1CCN(C(=O)N(C)C)CC1,0.88,-0.51
Cc1ccc(C(=O)Nc2cccc(-c3ccc(N4CCOCC4)nn3)c2)cc1[N+](=O)[O-],0.56,-0.5
CCC(=O)NC(c1ccc(OC)cc1)c1c(O)ccc2ccccc12 (stereo not drawn),1.2,-0.59
COc1ccccc1CNc1nc2nc3c(c(=O)n2[nH]1)CCC3,1.4,0.51
CCOc1ccc(NC(=O)[C@@H]2CCC(=O)N2C2OC(=O)c3ccccc32)cc1 (stereo partly drawn),0.22,1.9
CCOc1cc(/C=N/NC(=O)c2ccc(O)cc2)ccc1Oc1nc(Cl)ncc1F,2.8,-0.53
CC(C)[C@H](N)c1nnc2n1N=C(c1ccc(Cl)cc1)CS2,0.08,1.2
CCSc1cc(C)nc2ncnn12,0.06,0.9
COCCCNC(=O)c1ccccc1NS(=O)(=O)c1ccc(C)cc1,1.4,-0.59
CN(CC(=O)NCc1ccco1)S(=O)(=O)c1ccc2c(c1)n(C)c(=O)c(=O)n2C,0.09,0.03
COc1ccc(Nc2nc(N3CCCC3)c3ccccc3n2)cc1,0.61,-0.61
Cc1ccnc(NS(=O)(=O)c2ccc(NC(=O)c3ccc(S(=O)(=O)N(C)C)cc3)cc2)n1,0.79,-1.8
CC[C@@H](C)[C@H](NS(=O)(=O)c1ccc(C)cc1)C(=O)N1CCC(C(=O)NCC(=O)O)CC1,0.95,-1.2
CCC(CC)CN1CCN=C1N(C)C,0.48,0.13
CC(=O)c1cccc(NC(=O)CCC(=O)Oc2ccc(C)cc2)c1,0.28,0.47
COc1ccccc1NC(=O)CSCc1nc2ccccc2[nH]1,0.55,0.56
O=C(Nc1ccccn1)c1onc2c1CCCC2,0.28,1.4
Cc1ccc(N(CC(=O)NC2CCCC2)C(=O)c2ccc(C)s2)cc1,0.01,-0.82
CC(=O)c1cccc(NC(=O)C2(c3ccccc3)CC2(Cl)Cl)c1 (stereo not drawn),2.4,-0.28
